Compound activity (PubChem BioAssay)
KCNQ2 pot = potentiators of rat KCNQ2 potassium channel; CHO-K1 KCNQ2, FluxOR thallium flux fluorescence; active compounds read high; AID 2239, 2010; Potassium voltage-gated channel subfamily KQT member 2 (Rattus norvegicus), O88943; B-score at 10 µM; 310,000 compounds, 0.54% hits;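 active = fluorescence ratio B-score at least 3 SD of library B-scores, with initial fluorescence B-score within 3 SD, cut at about 5.3 in these data; same plate scores as AID 2156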;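 note: B-score of peak minus minimum over baseline fluorescence ratio after K+ and Tl+ stimulus; positive B-score means potentiation of KCNQ2 with more thallium influx and brighter signal; only the inactives scoring about 0 or higher are listed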
Target sequence (O88943 whole entry, looked up): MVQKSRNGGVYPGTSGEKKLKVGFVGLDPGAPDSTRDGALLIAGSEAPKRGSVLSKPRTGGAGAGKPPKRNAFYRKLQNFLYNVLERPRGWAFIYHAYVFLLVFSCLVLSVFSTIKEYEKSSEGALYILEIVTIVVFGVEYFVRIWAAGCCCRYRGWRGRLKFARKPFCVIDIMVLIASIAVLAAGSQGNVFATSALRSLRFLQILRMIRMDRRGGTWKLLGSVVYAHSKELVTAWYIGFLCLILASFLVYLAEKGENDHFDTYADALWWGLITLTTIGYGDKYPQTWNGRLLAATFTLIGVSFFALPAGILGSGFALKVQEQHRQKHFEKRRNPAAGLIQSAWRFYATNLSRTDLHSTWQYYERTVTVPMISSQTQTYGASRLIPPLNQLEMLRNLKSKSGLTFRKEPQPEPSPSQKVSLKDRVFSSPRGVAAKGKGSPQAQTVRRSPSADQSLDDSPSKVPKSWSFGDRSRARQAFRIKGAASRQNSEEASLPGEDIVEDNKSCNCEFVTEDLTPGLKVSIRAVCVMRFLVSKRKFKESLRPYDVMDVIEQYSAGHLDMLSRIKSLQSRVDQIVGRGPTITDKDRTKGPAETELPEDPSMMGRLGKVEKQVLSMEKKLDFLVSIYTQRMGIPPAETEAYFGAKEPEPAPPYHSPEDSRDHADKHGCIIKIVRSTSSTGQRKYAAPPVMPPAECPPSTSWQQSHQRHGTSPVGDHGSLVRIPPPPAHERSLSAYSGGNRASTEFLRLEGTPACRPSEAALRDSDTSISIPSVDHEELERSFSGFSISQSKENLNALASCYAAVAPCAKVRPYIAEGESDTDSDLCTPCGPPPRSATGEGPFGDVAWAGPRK
KCNQ2 pot baseline = recorded beside KCNQ2 pot, whose call it bears; B-score; compound at 10 µM; measured here: initial fluorescence intensity artifact check;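 brightness before thallium and not channel activity; 0 = typical well and far values either way flag optical interference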
Starred values were filed as active, the others as inactive. These rows are one share of the data. The share of hits here may be higher or lower than overall.

Order of results – KCNQ2 pot	KCNQ2 pot baseline
1	CCCn1c(N)c(C(=O)CN2CCN(S(=O)(=O)c3cccs3)CC2)c(=O)[nH]c1=O
    1.8	-0.43
2	O=C(NC(=S)Nc1cccnc1)c1cc2ccccc2o1
    8.1*	-0.1*
3	CCOC(=O)C1CN(S(=O)(=O)c2ccc(C)cc2)C1
    1.2	0.29
4	CCOc1ccc(C(=O)NCc2cccnc2)cc1
    2.5	-0.4
5	O=[N+]([O-])c1ccc2c3n([n+]([O-])c2c1)CCN=C3c1ccc(Cl)cc1
    0.24	0.19
6	O=S(=O)(NCc1ccc(Cl)cc1Cl)c1ccc(N2CCOCC2)nc1
    0.78	0.28
7	CC(=O)c1cccc(N(C(=O)c2csnn2)C(C(=O)NC2CCCC2)c2ccccc2)c1 (configuration not stated)
    1.2	-0.43
8	O=C(NCc1ccccn1)c1nc(Cn2ccc([N+](=O)[O-])n2)no1
    0.87	0.34
9	Cn1c(=O)c2c(nc(NCc3ccco3)n2CC(O)COc2ccccc2)n(C)c1=O (configuration not stated)
    0.96	-1.1
10	Cc1cc(C=C(C#N)C#N)c(C)n1-c1ccccc1
    0.95	-1.7
11	CC(=O)NNc1cc(N2CCOCC2)nc(N2CCOCC2)n1
    0.82	1.4
12	CCOC(=O)c1cc(-c2ccc(C)o2)n[nH]1
    0.91	0.76
13	CCCCn1nc(C(=O)N2CCN(S(=O)(=O)c3ccccc3)CC2)c2ccccc2c1=O
    0.38	-0.79
14	CCCCCn1c(CN2CCCCC2CC)nc2c1c(=O)n(C)c(=O)n2C (configuration not stated)
    0.19	1.2
15	COC(=O)c1ccc(CO/N=C/c2cccc([N+](=O)[O-])c2)cc1
    0.28	-0.48
16	O=C(COc1ccccc1)Nc1c(C(=O)N2CCC(N3CCCCC3)CC2)oc2ccccc12
    0.24	0.14
17	CCc1cc(C(=O)OC)c(NC(=O)CN2CCN(C(=O)C3CCCO3)CC2)s1 (configuration not stated)
    1.3	-0.91
18	CCc1c(C#N)c(SCCC(=O)Nc2ccc(C)cc2)nc2c1C(=O)CC(C)(C)C2
    0.7	-1.2
19	Cc1c(Cl)cccc1NC(=O)CSc1ncnc2c1cnn2CCO
    0.4	0.57
20	COc1ccc(N2CCN(C(=O)c3cc(=O)c4cc(Cl)ccc4o3)CC2)cc1
    0.01	-1.4

Rewritten with values ahead of the structure: 3 of the compounds above
#	KCNQ2 pot	KCNQ2 pot baseline	SMILES
12	0.91	0.76	CCOC(=O)c1cc(-c2ccc(C)o2)n[nH]1
15	0.28	-0.48	COC(=O)c1ccc(CO/N=C/c2cccc([N+](=O)[O-])c2)cc1
5	0.24	0.19	O=[N+]([O-])c1ccc2c3n([n+]([O-])c2c1)CCN=C3c1ccc(Cl)cc1

The results go on.
Order of results – KCNQ2 pot	KCNQ2 pot baseline
21	CCn1ccnc1CNC(=O)c1ccc(OC2CCN(C(=O)COC)CC2)cc1
    0.02	0.02
22	Cc1cccc(Cn2ccc(N)n2)c1
    0.95	-1.1
23	COc1cc(C(C(=O)NC(C)(C)C)N(Cc2ccccc2)C(=O)c2cnccn2)cc(OC)c1OC (configuration not stated)
    1.1	-0.61
24	CCC(=O)NNC(=O)c1cc(COc2cc(Cl)cc(Cl)c2)on1
    0.2	0.75
25	CCOc1ccccc1C(=O)Nc1cnn(Cc2ccc(F)cc2)c1
    0.79	-2.6
26	COc1ccc(-c2csc(/C(C#N)=C(\O)CSc3nccn3C)n2)cc1OC
    1.7	-1.1
27	COc1nc(NC(C)(C)C)nc(Oc2ccc(=O)n(-c3ccccc3)n2)n1
    0.94	-0.5
28	C=CCNC(=O)COC(=O)c1cc(S(=O)(=O)N2CCOCC2)ccc1N1CCCCC1
    1.6	-1.6
29	Cc1ccccc1C(=O)OC(C)CN1CCOCC1 (configuration not stated)
    0.95	0.42
30	COC(C(=O)NNC(=O)Cc1ccc(Cl)cc1)c1ccccc1 (configuration not stated)
    0.57	1.9
31	Cc1noc(NC(=O)c2cccc(C(F)(F)F)c2)c1Cl
    0.67	0.28
32	Nc1nc(Cl)cc(NCCc2ccccc2)n1
    0.68	-0.09
33	Nc1ccccc1-n1c(=O)n(Cc2ccccc2F)c(=O)c2[nH]cnc21
    0.86	-0.74
34	OC1(c2ccc(OC(F)F)cc2)CSC(=Nc2cccnc2)N1Cc1ccco1 (configuration not stated)
    0.27	-1.2
35	Cc1nc(SCCOc2ccccc2)[nH]c(=O)c1Cc1ccccc1
    0.7	-0.36
36	Cn1c(NC(=O)c2ccco2)cc(=O)n(C)c1=O
    0.16	1.9
37	O=S(=O)(c1ccc(Cl)cc1)n1nnc2ccccc21
    1.1	-1.4
38	CCc1ccccc1NC(=S)N(CCN1CCCCCC1)Cc1ccco1
    0.35	-0.59
39	CC(=O)N1c2ccc(S(=O)(=O)NCCC(=O)Nc3ccc(F)cc3C)cc2CC1C (configuration not stated)
    1.2	-0.81
40	O=C1NCCCc2c1oc1ccc(O)cc21
    0.28	-1.5

Retrieved by compound from the list above (5):
Order of results – KCNQ2 pot	KCNQ2 pot baseline
25	CCOc1ccccc1C(=O)Nc1cnn(Cc2ccc(F)cc2)c1
    0.79	-2.6
39	CC(=O)N1c2ccc(S(=O)(=O)NCCC(=O)Nc3ccc(F)cc3C)cc2CC1C (configuration not stated)
    1.2	-0.81
40	O=C1NCCCc2c1oc1ccc(O)cc21
    0.28	-1.5
29	Cc1ccccc1C(=O)OC(C)CN1CCOCC1 (configuration not stated)
    0.95	0.42
34	OC1(c2ccc(OC(F)F)cc2)CSC(=Nc2cccnc2)N1Cc1ccco1 (configuration not stated)
    0.27	-1.2

(more compounds)
Order of results – KCNQ2 pot	KCNQ2 pot baseline
41	CN1CCCN(C(=O)c2ccc(Cl)s2)CC1
    0.55	-0.02
42	Cc1ccc(CC(C(=O)O)C(C)C(=O)Nc2ccc(F)cc2)cc1 (configuration not stated)
    1.1	0.31
43	Cc1cc(C(=O)OCC(=O)Nc2cccc(S(N)(=O)=O)c2)c2ccccc2n1
    1.4	1
44	Cn1c2c(c3cc([N+](=O)[O-])ccc31)CCCC2
    0.18	-1.6
45	O=C(NCCN1CCOCC1)c1cc2ccccc2oc1=O
    0.01	0.9
46	CC(C)CCn1cnc2c(oc3nc4c(cc32)CCCC4)c1=O
    0.05	-0.09
47	Cc1c(C(=O)OCC(=O)N2CCCC2)cccc1[N+](=O)[O-]
    0.14	-0.74
48	CCOc1ccccc1CN1CCN(Cc2ccc(C)o2)CC1CCO (configuration not stated)
    1	0.44
49	CCc1nc(SCc2ccc(C(=O)OC)o2)c2c(=O)n(C)c(=O)n(C)c2n1
    0.48	-0.56
50	CC(OC(=O)c1cc(S(=O)(=O)N2CCOCC2)ccc1F)C(=O)NCc1ccc2c(c1)OCO2 (configuration not stated)
    0.42	-2.4
51	O=C(NN1C(=O)C2C3CCC(O3)C2C1=O)c1ccc(Cl)cc1 (configuration not stated)
    0.89	-0.64
52	O=c1c(Cc2ccc(Cl)cc2)c(O)ccn1Cc1ccncc1
    0.85	-0.85
53	O=C(NCC1(N2CCCCC2)CCCCC1)c1cccc(NS(=O)(=O)c2ccccc2)c1
    2	-0.65
54	Cc1ccc(Nc2nc(NCC3CCCO3)nc(N)c2[N+](=O)[O-])cc1C (configuration not stated)
    0.43	-0.74
55	COc1cccc(C(C)NC(=O)C2CCCC2)c1 (configuration not stated)
    1.3	0.69
56	CC(NC(=O)C1CC2CCCC(C1)C2=O)c1ccccc1 (configuration not stated)
    2.4	0.97
57	C/C(Cl)=C\Cn1c(O)c(N=NC(N)=S)c2cc(Br)ccc21
    9.2*	0.34*
58	COCC(=O)OCC(=O)c1cc(C)n(-c2ccc(Br)cc2)c1C
    0.53	0
59	C=CCSc1ncccc1C(=O)NCc1ccc(C)cc1
    3	-0.31
60	CC(=O)Nc1ccc(S(=O)(=O)N2CCC(c3nc4c(nnn4Cc4ccccc4Cl)c(=O)[nH]3)CC2)cc1
    0.47	-0.77
61	CN1CCN(c2ccccc2NC(=O)c2ccccc2F)CC1
    2	-0.02
62	O=C1Cn2c(nc3ccccc32)-c2ccccc2N1
    0.05	0.95
63	CCCc1cc(=O)oc2cc(C)cc(OCC(=O)Nc3ccc(S(N)(=O)=O)cc3)c12
    1.2	-0.54
64	CCC(CC)c1nnc(NC(=O)c2cc(C(=O)OC)cc([N+](=O)[O-])c2)s1
    1	-0.14
65	CCCNC(=S)N1CCC(C(=O)c2ccc(OC)cc2)CC1
    0.25	0.15
66	CCOc1ccc(C(=O)Nc2ccc(C(F)(F)F)n(C)c2=O)cc1
    0.77	-0.45
67	Cc1ccccc1Cn1c(=O)n(CCCC(=O)NCc2ccco2)c(=O)c2ccccc21
    0.08	-1.6
68	COc1cc(NC(=O)c2ccccc2)c(OC)cc1NC(=O)CSc1[nH]c(=O)cc(C)c1C#N
    0.8	-2
69	Cc1onc(-c2ccccc2Cl)c1C(=O)NCc1cccs1
    0.14	-0.1
70	CC(C)NC(=O)C1CCN(C2CCN(Cc3cn[nH]c3-c3ccccc3)CC2)CC1
    0.89	-0.78
71	Nc1nc(-c2ccc(-c3ccccc3)cc2)cs1
    0.14	-0.01
72	COC(=O)C1=C(C)N(C)C(=O)/C1=C\c1ccco1
    2	2.3
73	CCOc1ccc(N2C(=O)C3Sc4[nH]c(=O)sc4C(c4ccc(OC)c(OC)c4)C3C2=O)cc1 (configuration not stated)
    0.44	0.04
74	COc1cccc2cc(/C(C)=N/NC(=O)c3ccco3)oc12
    1.9	-1.3
75	CCOC(=O)c1nn(-c2c(C)n(C)n(-c3ccccc3)c2=O)cc1O
    0.4	0.61
76	O=C(O)CN(Cc1ccccc1)S(=O)(=O)c1ccc(F)cc1
    0.85	-1.7
77	COc1ccc(/C=C/C(=O)Nc2sc(Cc3ccccc3)c(C)c2C(N)=O)cc1
    0.05	-0.17
78	CC(=O)OCCN(Cc1ccccc1)Cc1ccc2c(c1)OCO2
    0.02	-0.53
79	CCOC(=O)N1CCN(c2c(NCc3ccc(Cl)cc3)c(=O)c2=O)CC1
    0.02	0.5
80	Cc1ccc(S(=O)(=O)N2CCCC2CNC(=O)C(=O)NCc2ccccn2)cc1 (configuration not stated)
    0.58	0.67
81	CCCCc1c(C)nc2ccc(OC)cc2c1SCCC(=O)O
    1.2	-0.99
82	O=C(NCC1CC1)c1ccc(Oc2cc(Cl)cc(Cl)c2)o1
    2	-0.7
83	COC(=O)c1ccc(CNC(=O)Cn2nnnc2CN(C)C(C)C)cc1
    0.01	-0.99
84	CCCC(=O)Nc1ccc(Cl)c(-c2nc3ncccc3o2)c1
    2.4	-0.87
85	CC1CCCN(S(=O)(=O)c2ccc(S(=O)(=O)N3CCCC3)cc2)C1 (configuration not stated)
    0.75	0.35
86	CCC(=O)Nc1cccc(-c2cn3cccc(C)c3n2)c1
    1.2	-1.2
87	O=C(c1cccnc1)C1Cc2ccccc2C1=O (configuration not stated)
    1.8	0.21
88	CCOC(=O)CN(c1cccc(C(C)=O)c1)S(C)(=O)=O
    1.7	-2.9
89	CCOC(=O)CN1CC23C=CC(O2)C(C(=O)NCCc2ccccc2)C3C1=O (configuration not stated)
    0.31	-0.56
90	c1ccc2c(c1)nc(Nc1ccc3c(c1)OCO3)c1nnnn12
    1.8	-0.13
91	O=C(Cn1c(=O)n(CCC(=O)N2CCCCC2)c(=O)c2sccc21)NCc1ccccc1
    0.02	0.72
92	Cc1c(Cl)cccc1NC(=O)CN1CCN(CCO)CC1
    0.35	-1.4
93	Cn1c(CNC(=O)c2ccc(Cl)cc2)nnc1SCC(=O)NC1CCCC1
    0.29	-0.13
94	CCOc1ccc2nc(SCC(=O)Nc3nonc3C)[nH]c2c1
    0.2	-0.74
95	O=c1c2ccccc2ncn1-c1ccccc1[N+](=O)[O-]
    0.68	-0.13
96	CCCCN1C(=O)CC(Sc2ncccc2C(=O)O)C1=O (configuration not stated)
    0.32	-0.05
97	N#CCOC(=O)c1c2c(nc3ccccc13)CCC2
    0.47	0.27
98	COc1ccc2[nH]c(C(=O)O)c(CCNC(=O)/C=C/c3ccc(O)c(OC)c3)c2c1
    0.04	-0.88
99	NC1=NC[C@@H](Cc2ccc(O)cc2)N1CCc1cccc2ccccc12
    1.5	0.58
100	COc1ccccc1-n1cnc2cc(C(=O)NCC3CCCO3)ccc21 (configuration not stated)
    0.01	0.01

(next part)
Order of results – KCNQ2 pot	KCNQ2 pot baseline
101	COc1cccc(C(=O)NCCS(=O)(=O)N2CCN(C(=O)c3ccco3)CC2)c1
    1.5	0.14
102	C=CCOc1ccc(CNc2ccc(NC(=O)CCC)cc2)cc1OCC
    1.7	-0.01
103	CC(C)OC(=O)c1c(F)c(F)c(N2CCOCC2)c(F)c1F
    0.06	0.03
104	COc1ccc(OCc2nnc(SC3CCOC3=O)n2-c2ccccc2)cc1 (configuration not stated)
    0.55	-0.83
105	COc1ccccc1NC(=O)CN1CCN(C(=O)c2ccco2)CC1
    1.1	-1.2
106	NC1=NC(=O)/C(=C/c2cn(CCC(=O)O)nc2-c2ccc(Cl)cc2)S1
    0.51	0.66
107	C=CCN(CC(=O)NCc1ccccc1)C(=O)c1csnn1
    0.12	0.23
108	Cc1cccc(N(C(=O)Cn2nnc(-c3ccccc3F)n2)C(C(=O)NC(C)(C)C)c2ccncc2)c1 (configuration not stated)
    0.02	-1.3
109	CC(C)=C1SC(N2CCN(c3cccc(Cl)c3)CC2)=NC1=O
    0.13	-0.01
110	O=c1ccc(-c2ccccc2)nn1Cc1ccc(F)cc1Cl
    0.06	0.11
111	CC(C)n1cnc2c(NCc3ccc(S(N)(=O)=O)cc3)nc(NCc3ccc(S(N)(=O)=O)cc3)nc21
    1.1	0.14
112	COc1ccc(C(=O)Nc2ccc(C)cn2)cc1S(=O)(=O)N1CCCc2ccccc21
    1.3	-0.62
113	O=C(O)C1=C[C@H](c2csc3ccccc23)C[C@H](OCCCCO)O1
    0.86	-0.01
114	COc1ccc(C(=O)NCc2ccc3c(c2)OCO3)c(OC)c1
    0.91	-0.93
115	CCN(CC)C(=O)CSc1ncnc2sc(-c3ccccc3)cc12
    0.74	-0.29
